Source: PubChem BioAssay
TRPML1 inh: human mucolipin-1 channel inhibition; Q9GZU1; TRPML1-inducible cells, Ca2+ dye fluorescence, FDSS; active compounds read low; inhibition of EC80 agonist-evoked calcium signal; activity change, negative = inhibition, % (test concentration not listed); 390,000 tested, 0.02% active; AID 624415; in the data active means activity change below about -50%; inconclusive means about -30% to -50%; inactive means above about -30%;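 further: stimulus is agonist 54-4 at its EC80 concentration; on the % scale 0 is the no-effect control and ±100 the full control effect; compound concentration not given in the record; the text of the record puts the active cut at -80%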
Target sequence (Q9GZU1 whole entry, looked up): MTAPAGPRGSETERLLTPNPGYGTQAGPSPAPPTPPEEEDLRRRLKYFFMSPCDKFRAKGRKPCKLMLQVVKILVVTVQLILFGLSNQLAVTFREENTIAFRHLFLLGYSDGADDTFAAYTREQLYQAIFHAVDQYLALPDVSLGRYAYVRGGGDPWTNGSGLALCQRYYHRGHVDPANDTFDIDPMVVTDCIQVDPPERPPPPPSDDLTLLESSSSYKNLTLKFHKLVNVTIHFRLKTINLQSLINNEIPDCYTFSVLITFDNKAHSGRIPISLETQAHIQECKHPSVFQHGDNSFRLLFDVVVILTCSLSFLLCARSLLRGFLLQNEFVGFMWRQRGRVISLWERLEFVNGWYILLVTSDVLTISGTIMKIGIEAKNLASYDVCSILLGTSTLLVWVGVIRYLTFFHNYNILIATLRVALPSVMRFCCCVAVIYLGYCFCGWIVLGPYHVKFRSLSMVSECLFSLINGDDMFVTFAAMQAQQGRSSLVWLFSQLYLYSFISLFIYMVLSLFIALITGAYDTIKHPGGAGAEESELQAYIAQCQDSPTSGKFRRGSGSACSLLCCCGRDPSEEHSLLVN
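Calcium fluorescence in TRPML1-DL cells induced overnight with Tet: a 110 s read after compound pin addition, then a 110 s antagonist read after challenge with 54-4 at 4 uM final (EC80).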
gsp antagonist: antagonists of gsp mutant (McCune-Albright syndrome) | 340,000 tested, 0.4% active | gsp-mutant cells, cAMP HTRF, 30 min; control for the full effect not named in the record | Potency, µM (titrated, usually from 76.9 µM), without a hit: at the highest dose activity change, negative = inhibition, most hits filed as inhibitors | AID 624288; active = falling curve of any shape with a large fitted effect; inconclusive = falling curve, mostly with a smaller effect; inactive = flat or rising curve; cell line not stated here;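 further: intracellular cAMP measured with PDE inhibitor Ro 20-1724 present during compound exposure; potency means the concentration at half of the fitted maximal effect; on the % scale 0 is the no-effect control and ±100 the full control effect; nearly all actives have a fitted effect of over 65% in size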
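G418-selected cells were plated in DMEM/10% FBS for 16-24 h at 37C, then treated with compounds plus the PDE inhibitor […] (300 uM solution added) for 30 min at 37C. Intracellular cAMP was measured by HTRF after 30 min lysis at room temperature.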
Sfp PPTase inh: Sfp phosphopantetheinyl transferase inhibition. 310,000 tested, 3.5% active. Biochemical Sfp PPTase activity, qHTS. Potency, µM, for the others: max response, negative = inhibition, hits mostly inhibitors; active means well fitted inhibition curve with a large enough effect; inconclusive means small, poorly fitted or top-dose-only effect, or another doubt; inactive means no such curve, though single readings can be large or run the other way;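 further: the enzyme is Sfp with the accession as filed and its product quenches rhodamine fluorescence; potency means the concentration at half of the fitted maximal effect; 0% = enzyme reaction without inhibitor and -100% = no enzyme wells; top concentration of the series not given in the record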
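Reaction rates are the 30-min fluorescence difference (ex 525, em 598 nm) in wells containing 15 nM Sfp, 5 uM rhodamine-CoA and 12.5 uM BHQ-2-YbbR at pH 7.6 with 10 mM MgCl2.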
ClpP mod: qHTS Assay for Activators of ClpP; Potency, µM (series often up to 57.5 µM), inactives show top-dose activity change, negative = active; 340,000 tested, 1.9% active; purified B. subtilis ClpP, FRET peptide cleavage, 20 min; ATP-dependent Clp protease proteolytic subunit (Bacillus subtilis (strain 168)), P80244; active = well fitted falling curve with a large enough effect; inconclusive = small, poorly fitted or top-dose-only effect; inactive = no such curve, though single readings can be large or run the other way; further: potency means the concentration at half of the fitted maximal effect; the source files actives as falling curves though it sought activators and does not explain the sign; nearly all actives have a fitted effect of over 65% in size; many hits overshoot -100%
Target sequence (P80244 whole entry, looked up): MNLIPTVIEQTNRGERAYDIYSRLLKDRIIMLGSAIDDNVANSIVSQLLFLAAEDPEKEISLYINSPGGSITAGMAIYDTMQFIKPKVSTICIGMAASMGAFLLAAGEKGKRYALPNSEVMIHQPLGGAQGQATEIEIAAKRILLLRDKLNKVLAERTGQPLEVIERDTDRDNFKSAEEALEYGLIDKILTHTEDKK
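FRET quenching reversal measured ClpP activation: 10 microg/mL B. subtilis ClpP at pH 8 with the FRET-FV decapeptide, read at 430 nm after 320 nm excitation. The 20-min minus 0-min signal was scaled between DMSO/no-enzyme wells and ADEP (5.8 microM final).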
Menin MLL FP FL: displaces fluorescein MLL peptide from human menin. 290,000 tested, under 10 active. Fluorescence polarization, fluorescein-MLL peptide displacement from menin. FP activity change, % at 61.4 µM; inconclusive = falling polarisation curve, or a change in total fluorescence; inactive = total fluorescence flat and polarisation flat or rising; no compound was filed as active; the % refers to the polarisation; negative = inhibition;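 further: % of control where 0% means no effect; inhibitors lower the polarisation; unlabelled MLL peptide was the positive control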
gsp agonist: gsp mutant agonism | gsp mutant cells, cAMP HTRF, 30 min; control for the full effect not named in the record | Potency, µM (doses to about 76.9 µM), for the others: at the highest dose activation (cAMP increase), usual class: activators | 340,000 tested, 0.13% active; active = well fitted activation curve with a large enough effect; inconclusive = small, poorly fitted or top-dose-only effect, or another doubt; inactive = no such curve, though single readings can be large or run the other way; cell line not stated here;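 further: phosphodiesterase inhibitor Ro 20-1724 added with compounds to block cAMP breakdown; potency means the concentration at half of the fitted maximal effect; nearly all actives have a fitted effect of over 60% in size; about a fifth of the inactives were tested at one dose only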
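Cells stably selected in G418 were plated at 2000/well, grown 16-24 hr, then given compounds in DMSO with the PDE inhibitor […] (300 uM solution added) for 30 min at 37C; cAMP was read by HTRF.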
TRPV1 PAM: enhances activation of the human vanilloid receptor TRPV1. TRPV1-expressing cells, Fluo-8 calcium influx, capsaicin EC20 potentiation; host cell line not named in the record; control for the full effect not named in the record. 320,000 tested, 0.02% active. AID 540277. potentiation, % at 8.33 µM. Q8NER1; active means potentiation above 80%; inconclusive means 30% to 80%; inactive means below 30%; further: 0% is about no effect
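Fluo-8 calcium influx in TRPV1-expressing cells, kinetic read (ex 480/em 520 nm). Compound added and read 3 min for agonist activity, followed by capsaicin at EC20 final and 2 min further read for enhancement.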
Starred values were filed as active, the others as inactive; u = inconclusive; x = no result given; & = joins results of further samples; [ ] = dose if it differs, or a comment.

Every second line gives: TRPML1 inh	gsp antagonist	Sfp PPTase inh	ClpP mod	Menin MLL FP FL	gsp agonist	TRPV1 PAM
- Cc1oc(-c2ccccc2Cl)nc1CS(=O)CC(=O)N1CCN(c2ccccc2)CC1 (configuration not stated)
 : 10	-4%	-4%	1.1%	x	30%	-2
- CCn1c(SCc2ccc(F)cc2)nc2c(c1=O)SCC2
 : 51	u	0%	-0.3%	0.7	11%[15.4 µM]	-1
- COc1ccc(N(C)C(=O)Nc2ccc3nsnc3c2)cc1
 : 3	-17%	17%	x	-17	-10%	-1
- O=C(NCCCCCCCCCNC(=O)C(F)(F)F)C(F)(F)F
 : -6	-7%	-3%	-0.6%	1.8	-58%[inhibitor]	19
- O=C(Nc1ccc(OC(=O)c2cccnc2)cc1)c1cccnc1
 : 35	8%	-10%	-0.8%	0.1	-5%	25
- COc1ccc(C(=O)OCC(=O)N2CCC(C)CC2)cc1S(=O)(=O)N1CCOCC1
 : 1	0%	x	-2.8%	x	-4%	0
- O=C(Nc1ccc(C(=O)Oc2ccccc2)c(O)c1)c1ccccc1
 : 1	u	5%	x	3.3	-15%	-6
- CC(C)S(=O)(=O)C1=NSC2=NC(=O)/C(=C\c3ccc(-c4ccccc4)o3)C(=N)N21
 : -12	u	-1%	-3.0%	u	1%	3
- COc1ccccc1/C=C1/C(=O)N(c2cc(C)cc(C)c2)C(c2cccc([N+](=O)[O-])c2)S1(=O)=O (configuration not stated)
 : 41	-5%	6%	-2.4%	4.3	-3%[15.4 µM]	14
- O=C(CCNC(=O)C1CCN(S(=O)(=O)c2ccccc2)CC1)NCCc1cccc(F)c1
 : 3	-1%	13%	0.5%	x	-7%	-4
- COc1ccccc1-n1cccc1C=O
 : -13	1%	7%	1.1%	-1.9	12%	-9
- Cc1ccc(NC(=O)CCCC(=O)OC(C)C(=O)c2ccccc2)cc1 (configuration not stated)
 : -7	-1%	17%	x	3.8	19%	-6
- COc1ccccc1Nc1nc(NCCO)nc(N)c1[N+](=O)[O-]
 : 17	12%	24%	x	-1.2	4%[15.4 µM]	4
- CCn1nc(C(=O)NNC(=O)c2ccccc2OCc2c(C)noc2C)c2ccccc2c1=O
 : -3	3%	x	0.8%	x	12%	-16
- CC1Cc2ccccc2N1CC(=O)NC(=O)NC1CCCC1 (configuration not stated)
 : -5	-3%	5%	-1.1%	-5.2	-2%[15.4 µM]	5
- COc1ccc(CC(=O)NCCC2=CCCCC2)cc1
 : -27	-7%	14%	-0.7%	-0.2	30%	-10
- Cc1cc(C)c2c(=O)[nH]c(SCC(=O)NCCc3ccccc3)nc2n1
 : 6	7%	-9%	u	1.4	15%	-34
- COc1ccc(CCN(C)C(=O)N2CCOCC2)cc1OC
 : -1	6%	-3%	-0.2%	u	0%	-1
- COc1ccc(C2=NS(=O)(=O)N(C)C(C(=O)N3CCN(C)CC3)=C2)cc1
 : 2	3%	9%	-0.9%	3.4	-9%	5
- Cc1ccsc1-c1nc(CN2C[C@@H](C)O[C@@H](C)C2)c(C)o1
 : 22	-3%	-16%	-18%	2.1	-7%	-12
- Cc1c(Nc2c3ccccc3nc3ccccc23)c(=O)n(-c2ccccc2)n1C
 : -17	1%	8%	0.6%	5.1	-1%[15.4 µM]	-1
- COc1ccccc1N1CC(C(=O)Nc2nc(C)cs2)CC1=O (configuration not stated)
 : -17	0%	x	-4.7%	x	0%	-4
- CCCC(=O)NC(=S)Nc1cccc(NC(=O)c2ccccc2)c1
 : 12	3%	-5%	x	3.2	18%	10
- Cn1c(N)c(C(=O)Nc2c(Cl)cccc2Cl)sc1=S
 : -1	5%	0%	0.0%	5.0	11%[15.4 µM]	-11
- CCOC(=O)C1=NN(c2ccc(C)cc2)CC1C(=O)OC (configuration not stated)
 : 56	5%	7%	-2.3%	-1.1	-4%	-28
- Cc1ccc(Cl)cc1NC(=O)COC(=O)Cn1cnc2c1c(=O)n(C)c(=O)n2C
 : -1	5%	14%	-2.5%	-0.2	-8%[15.4 µM]	2
- CC1(C)CC(=O)C(/C=N/c2ccccn2)=C(O)C1
 : 29	10%	7%	18%	-0.2	0%	-7
- O=C(CNC(=O)c1ccc(Cl)cc1)OCC(=O)N1CCCC1
 : -6	12%	17%	-0.1%	-5.5	-6%[15.4 µM]	8
- Cn1nnc(NC(=O)COc2ccc(C3CCCCC3)cc2)n1
 : 3	-8%	8%	-0.3%	0.2	-21%	0
- CC(=O)NC(=S)Nc1cccc2ccc(C)nc12
 : 6	16%	5%	0.6%	-7.4	4%[15.4 µM]	4
- Cc1csc(NC(=O)Cc2c[nH]c3ccccc23)n1
 : -1	11%	1%	-0.5%	7.2	-13%	u
- O=C(NCCc1cn[nH]c1)c1ccc2oc(CCc3ccccc3)nc2c1
 : -3	x	x	-2.1%	x	-136%[inhibitor]	x
- CC(C)(C)C(=O)Nc1ccccc1N1CCN(c2ccc(F)cc2)CC1
 : -6	5%	-9%	1.5%	0.0	-16%[15.4 µM]	1
- COc1c(C)cccc1C(=O)Nc1cc(Cl)ccc1N1CCOCC1
 : 8	12%	-2%	u	0.2	u	-15
- C(=NOCc1ccccc1)c1ccccn1
 : 39	x	x	-1.3%	x	u	x
- COC(=O)COc1cc(OCC(=O)OC)c2c(-c3ccccc3)cc(=O)oc2c1
 : 13	-7%	9%	-4.0%	1.0	-36%[inhibitor]	7
- COc1ccc(Oc2coc3c(CN(C)C)c(O)ccc3c2=O)cc1
 : 23	4%	9%	28µM*	0.2	12%	-30
- CC(C)CNC(=O)C1(N2C(=O)c3ccccc3C2=O)CCCC1
 : -7	3%	x	u	x	12%[15.4 µM]	x
- COc1ccc(/C=C2\N=C(c3ccccc3Cl)NC2=O)cc1
 : 25	-18%	u	-4.9%	1.0	-1%	-10
- CCCCC1(COC(=O)CCC(=O)O)C(=O)N(c2ccccc2)N(c2ccccc2)C1=O
 : -2	-17%	9%&16%	-2.3%	1.1	x	-3
- COC(=O)c1cccc(C(=O)N2CCC(CO)(Cc3ccccc3Cl)CC2)c1
 : 21	-4%	-13%	1.0%	-2.4	14%	-3
- CCn1nc(C)c(CNC(=O)Nc2ccccc2C(=O)OC)c1C
 : 2	5%	-4%	1.6%	-0.1	-45%[15.4 µM]	2
- CC1CCc2c(sc3nc(C4CC4)nc(N4CCN(C(=O)c5ccco5)CC4)c23)C1 (configuration not stated)
 : 11	u	x	-4.9%	x	-5%	x
- Cc1c(NC(=O)C(C)Oc2ccc(Br)cc2Cl)c(=O)n(-c2ccccc2)n1C (configuration not stated)
 : 2	0%	x	1.2%	x	4%[15.4 µM]	18
- Cc1cc(=O)oc2cc(OCC(=O)N3c4ccccc4NC(=O)C3(C)C)ccc12
 : -11	-9%	x	x	x	-1%	x
- CCNC(=O)NC(=O)C(C)OC(=O)c1cc(S(=O)(=O)N2CCCCCC2)ccc1OC (configuration not stated)
 : -2	-2%	10%	-2.7%	4.0	9%	-39
- O=C(Cn1c(=O)n(Cc2ccccc2)c(=O)c2ccccc21)NCc1ccco1
 : 3	0%	6%	-8.5%	2.3	-10%	-5
- O=C(CSc1nnc2ccc(-c3ccccn3)nn12)Nc1cccc(F)c1
 : -4	x	x	-0.9%	x	-8%	x
- COc1ccc(CNC(=O)c2ccc(C(C)(C)C)cc2)cc1
 : -13	7%	-6%	x	3.5	-2%[15.4 µM]	-3
- O=[N+]([O-])C1=CC=C2C(=NC3(CCCCC3)N2O)C1=NCCc1ccccc1
 : -6	-2%	14%	x	-16	2%[15.4 µM]	-4
- CCC[C@@H]1CCCO[C@@](C(=O)NCc2cc(C)n(C)n2)(C(F)(F)F)C1
 : -16&-6	10%	4%	-1.8%	0.1	x	x
- Cc1ccc2c(c1)N(C(=O)CCC(=O)NCc1cccnc1)CC(C)O2 (configuration not stated)
 : 0	3%	17%	2.8%	1.4	10%	-3
- CC1CC(C)(C)NC(=S)N1CCC(=O)Nc1ccc2c(c1)OCCO2 (configuration not stated)
 : -4	-14%	20%	-1.3%	-1.7	-2%[15.4 µM]	5
- COC(=O)c1ccc(CO/N=C(\NC(C)=O)c2nonc2NC(C)=O)cc1
 : -11	8%	10%	0.9%	1.3	1%[15.4 µM]	1
- S=C(NCC1CCCCC1)Nc1ccc(Oc2ccccc2)cc1
 : 37	u	11%	1.2%	3.2	-9%	2
- CC(C)=CCN1CCN(Cc2cccc3nccnc23)CC1CCO (configuration not stated)
 : -2	12%	13%	1.2%	6.4	1%	0
- C/C(=N\Nc1ccc(Cl)cc1)c1c(O)cc(C)oc1=O
 : 8	0%	-15%	x	1.2	u	25
- Cc1c(CCC(=O)NCCCn2ccnc2)c(=O)oc2cc3oc4c(c3cc12)CCCC4
 : 0	-14%	8%	-14%	-1.2	24%	-10
- O=C(NC1C2CCCC1CN(C1CC1)C2)c1ccc(Cl)cc1 (configuration not stated)
 : x	-8%	12%	-0.1%	-5.7	-5%	-3
- CC(=O)N1CCN(S(=O)(=O)c2ccc(C)c([N+](=O)[O-])c2)C1C(C)C (configuration not stated)
 : -4	7%	13%	x	0.1	-21%	-10

(next part)
Every second line gives: TRPML1 inh	gsp antagonist	Sfp PPTase inh	ClpP mod	Menin MLL FP FL	gsp agonist	TRPV1 PAM
- O=C(O)c1ccc(N2CCS(=O)(=O)CC2)cc1
 : 12	-4%	21%	x	6.0	-28%[15.4 µM]	26
- COC(=O)C(C(=O)OC)N1C(=O)CCC1=O
 : 20	8%	11%	-1.3%	0.1	-17%	0
- Cn1cccc1/C=N/N1CCN(Cc2ccc(Cl)cc2)CC1
 : 36	3%	u	x	-2.8	-31%[inhibitor]	2
- CCCCCCCCCCCCCC(=O)NO
 : -11	6%	x	-2.5%	x	-4%	x
- Cc1ccc2nsnc2c1NC(=O)CCl
 : -7	8%	13%	-5.5%	-0.1	u	-4
- COC(=O)c1cc(S(=O)(=O)Nc2cccc(S(N)(=O)=O)c2)oc1C
 : -13	9%	9%	x	3.6	5%[15.4 µM]	7
- CCC(C)NS(=O)(=O)c1ccc(S(=O)(=O)N2CC=C(c3ccc(F)cc3)CC2)cc1 (configuration not stated)
 : 5	0%	15%	3.0%	1.7	0%	5
